Sa growth 42C: S. aureus growth inhibition at 42 and 30 °C, primary screen, LtaS inhibitor project, RN4220, two temperatures; OD600, 20 h, 42 °C; stronger effect = lower value; relative growth, % (test concentration not listed); 170,000 tested, 0.53% active;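 active = growth at 42 °C up to 50% and 20 or more points under that at 30 °C, or under 10% at both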;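 note: 300 nL library stock went into each well; scaled to the means of positive and negative controls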
HCMV UL50-53 inh: inhibitors of HCMV UL50-UL53 interaction, biochemical, HTRF; HCMV UL50-UL53 nuclear egress complex (human cytomegalovirus); normalized percent inhibition; inhibition, % (no concentration beside the values); 190,000 tested, 0.15% active;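 active = both replicates at 50% or more, plus weaker picks with an unusually low signal ratio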;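 note: stock transfer was 100 nL into about 20 µL; 0% = negative control wells and 100% = wells with untagged competitor protein; inactives centre near -12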
GIV Gai3 FP: inhibitors of GIV peptide binding to Galpha-i3, primary screen, biochemical, fluorescence polarization, FITC-GIV GBA peptide, rat Galphai3; Guanine nucleotide-binding protein G(i) subunit alpha-3 (Rattus norvegicus), P08753; 90 min; stronger effect = lower value; scaled: aluminum fluoride 0%, vehicle 100%; percent of control (FP), % (test concentration not listed); 210,000 tested, 0.42% active;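 active = replicate mean at 85% of control or lower, very high polarization wells dropped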;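 note: wells of about 15 µL received 100 nL stock; the first replicate is given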
Target sequence (P08753 whole entry, looked up): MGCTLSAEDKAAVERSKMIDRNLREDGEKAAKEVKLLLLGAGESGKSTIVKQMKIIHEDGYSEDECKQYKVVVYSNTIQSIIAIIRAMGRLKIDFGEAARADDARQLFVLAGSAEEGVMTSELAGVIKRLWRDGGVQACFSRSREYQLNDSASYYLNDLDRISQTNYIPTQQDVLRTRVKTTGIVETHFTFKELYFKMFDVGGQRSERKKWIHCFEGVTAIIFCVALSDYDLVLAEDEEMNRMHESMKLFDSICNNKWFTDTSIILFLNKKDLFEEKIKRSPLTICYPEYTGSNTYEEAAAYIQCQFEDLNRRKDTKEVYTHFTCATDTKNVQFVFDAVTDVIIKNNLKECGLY
Sa growth 42C second temp: recorded beside Sa growth 42C, whose call it bears; relative growth, %; measured here: growth at 30 °C;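 optical density after 20 h as mean of two plates; 100% = untreated growth and lower means inhibition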
* marks the source's active call; other numbers are inactive results; . = not tested or not shown; & = joins results of further samples.

#1 CCCCC1(O)C(=O)c2ccccc2N(c2ccccc2)C1=O (stereo not given)
#2 c1ccc(-c2nc(-c3cccnc3)cs2)cc1
#3 O=C1CC2(CCN(C(=O)Nc3ccccc3)CC2)Oc2ccccc21
#4 CCN(CC)c1nc2ccccc2s1
#5 O=C(NCCCc1ccccc1)C1CCCN(S(=O)(=O)N2CCCCC2)C1 (stereo not given)
#6 COc1ccc(N2CCN(C(CNS(=O)(=O)c3ccc(Cl)cc3)c3cccnc3)CC2)cc1 (stereo not given)
#7 O=c1[nH]c2ccc(NCc3c(F)cccc3Cl)cc2[nH]1
#8 N#CCc1ccc(NC(=O)COCC(=O)O)cc1
assay / entry,1,2,3,4,5,6,7,8
Sa growth 42C,100,52,106,91,120,102,.,94
Sa growth 42C second temp,91,45,93,86,97,79,.,94
HCMV UL50-53 inh,-5,-35,-22,-8,.,0,4,2
GIV Gai3 FP,103,104,103,.,108,105,100,106

#9 CCOc1ccc(NC(=O)c2cnn(-c3ccccc3)c2-n2cccc2)cc1
#10 O=C1CCCC2=C1C(Cc1ccccc1)C1=C(CCCC1=O)O2
#11 O=C(O)c1cc(S(=O)(=O)Nc2ccc(O)cc2)ccc1O
#12 O=C(CCN1CCc2ccccc2C1)c1ccc2c(c1)OCCO2
#13 COc1ccc(Cl)cc1C(=O)NCc1nnnn1-c1ccccc1
#14 Cc1ccc(/C=C(\C#N)C(=O)Nc2ccc(Br)cc2)o1
#15 Cc1ccc(N2CCN(C(=O)C(c3ccccc3)c3ccccc3)CC2)cc1Cl
#16 Cc1cc(Br)ccc1NCc1cccnc1
assay / entry,9,10,11,12,13,14,15,16
Sa growth 42C,98,105,82,88,115,101,104,103
Sa growth 42C second temp,87,88,95,80,104,91,93,70
HCMV UL50-53 inh,-6,-14,8,.,.,-42,6,-13
GIV Gai3 FP,99,102,.,101,95,109,.,104

6 compounds from above, ordered by their value in Sa growth 42C second temp, ascending:
| item | structure | Sa growth 42C second temp |
| --- | --- | --- |
| 2 | c1ccc(-c2nc(-c3cccnc3)cs2)cc1 | 45 |
| 10 | O=C1CCCC2=C1C(Cc1ccccc1)C1=C(CCCC1=O)O2 | 88 |
| 15 | Cc1ccc(N2CCN(C(=O)C(c3ccccc3)c3ccccc3)CC2)cc1Cl | 93 |
| 8 | N#CCc1ccc(NC(=O)COCC(=O)O)cc1 | 94 |
| 11 | O=C(O)c1cc(S(=O)(=O)Nc2ccc(O)cc2)ccc1O | 95 |
| 5 | O=C(NCCCc1ccccc1)C1CCCN(S(=O)(=O)N2CCCCC2)C1 (stereo not given) | 97 |

Additional results
#17 CC(=O)N1c2ccc(S(=O)(=O)N3CCCCCC3)cc2CC1C(=O)NCc1ccccc1C (stereo not given)
#18 O=C(O)CCCc1ccccc1
#19 COc1ccccc1NC(=O)C(C)Sc1nc(C)cs1 (stereo not given)
#20 CCCNC(=O)Nc1ccc2c(c1)N(C)C(=O)c1ccccc1S2
#21 CCOc1ccc(C(C)NC(=O)c2c(C)noc2C)cc1OCC (stereo not given)
#22 COc1ccc(-c2noc(CC(=O)N(C)Cc3ccco3)n2)cc1
#23 COC(=O)c1cccc(NC(=O)/C=C/c2ccc3c(c2)OCO3)c1
#24 CC(CC(=O)Nc1ccc(F)cc1)S(=O)(=O)c1cc2c3c(c1)CCN3C(=O)CC2 (stereo not given)
assay / entry,17,18,19,20,21,22,23,24
Sa growth 42C,96,99,93,85,98,107,100,102
Sa growth 42C second temp,91,95,97,85,94,105,92,89
HCMV UL50-53 inh,.,-24&1&-10&-37,-22,.,5,3,-5,.
GIV Gai3 FP,102,96,.,103,.,112,.,101

#25 N#C/C(=C\Nc1cc(Cl)cc(Cl)c1)S(=O)(=O)c1ccccn1
#26 O=C(Nc1nccs1)c1cccc(S(=O)(=O)N2CCCC2)c1
#27 COc1cc(/C=C/C(=O)O)cc(S(=O)(=O)NCCO)c1OC
#28 Cc1cc(-c2ccc(C)c(S(=O)(=O)N3CCCc4ccccc43)c2)on1
#29 COc1ccccc1OC(C)C(=O)N1CCN(CCc2ccccn2)CC1 (stereo not given)
#30 CC(=O)N1CCc2cc(Br)cc(S(=O)(=O)NCCc3cccc(C)c3)c21
#31 Fc1ccc(Cc2cn3cc(-c4ccc(F)cc4)nc3s2)cc1
#32 C=CCN(Cc1nc(-c2ccc(Cl)cc2)no1)C(=O)C(C)(C)C
assay / entry,25,26,27,28,29,30,31,32
Sa growth 42C,103,95,90,97,97,119,84,95
Sa growth 42C second temp,85,90,83,110,85,85,84,82
HCMV UL50-53 inh,-5,-3,-46,12,-20,.,-26,-2
GIV Gai3 FP,110,.,102,103,99,101,108,100

#33 COc1ccc(-c2nc(SCC(=O)Oc3cc(C)ccc3C)n3[nH]c(=O)cc3n2)cc1
#34 O=C(Nc1ccc(Br)cc1)C1CC1
#35 CCn1nccc1NC(=O)Cc1ccc(Cl)cc1
#36 c1ccc(-c2cc3cnsc3o2)cc1
#37 O=C(Cn1c2ccccc2c(=O)c2ccccc21)NCc1cc(C(F)(F)F)ccc1F
#38 CCn1ccc2cc(S(=O)(=O)N3CCCC(C(=O)N4CCN(Cc5ccccc5)CC4)C3)ccc21 (stereo not given)
#39 O=C(O)C1C2C=CC(C2)C1C(=O)NCCCN1CCOCC1 (stereo not given)
#40 O=C(O)C(Cc1ccccc1)N1C(=O)c2ccccc2C1=O (stereo not given)
assay / entry,33,34,35,36,37,38,39,40
Sa growth 42C,.,97,86,54,.,.,78,87
Sa growth 42C second temp,.,101,82,57,.,.,114,93
HCMV UL50-53 inh,-20,-3,-14&-14,0,-15,-5,26,-6
GIV Gai3 FP,104,106,96&99,104,101,105,101,101

#41 O=C(Cc1cccc(C(F)(F)F)c1)OCC(=O)N1CCCCCC1
#42 CCC(C)n1c(=N)c(S(=O)(=O)c2ccccc2)cc2c(=O)n3ccccc3nc21 (stereo not given)
#43 COc1ccc(OC)c(C2C3=C(COC3=O)Nc3[nH]c(=O)[nH]c(=O)c32)c1 (stereo not given)
#44 O=C1CC2(CCCC2)C(=O)N1C1CCN(c2nccc(C(F)(F)F)n2)CC1
#45 CCOCCCNC(=O)Cc1csc2nc(-c3ccc(F)cc3)cn12
#46 O=C(/C=C/c1cccc(C(F)(F)F)c1)N1CCN(c2ccccc2F)CC1
#47 COc1ccccc1NC(=O)C1=C(C)NC2=C(C(=O)CCC2)C1c1cc(OC)c(OC)c(OC)c1 (stereo not given)
#48 O=C(Cn1ncn2cccc2c1=O)NCc1cccc(Br)c1
assay / entry,41,42,43,44,45,46,47,48
Sa growth 42C,106,107,78,107,.,130,.,113
Sa growth 42C second temp,81,88,96,88,.,93,.,92
HCMV UL50-53 inh,-34,-49,-23,.,-21,-2,-17,-16
GIV Gai3 FP,.,107,.,105,101,.,102,107

#49 Cc1cccc(S(=O)(=O)C(C#N)c2nc3ccccc3nc2N2CCCC2)c1 (stereo not given)
#50 COCCNC(=O)c1ccc(Cn2c(=O)c3cc(OC)c(OC)cc3n(Cc3ccc(F)cc3)c2=O)cc1
#51 O=C(NC1CCCCCC1)C1c2ccccc2C(=O)N1Cc1cccnc1 (stereo not given)
#52 COC(=O)CC(=O)CSc1cc(C)c(C#N)c2nc3ccccc3n12
#53 CC(C)Oc1ccccc1CN
#54 COc1ccc(C(=O)Nc2ccccc2C(=O)NC(C(=O)NCc2ccco2)C(C)C)cc1 (stereo not given)
#55 O=C(c1ccc2c(c1)N(Cc1c(F)cccc1Cl)C(=O)c1ccccc1S2)N1CCOCC1
#56 O=C(/C=C/Nc1ccc(S(=O)(=O)N2CCCCC2)cc1)C(F)(F)F
assay / entry,49,50,51,52,53,54,55,56
Sa growth 42C,101,.,94,24,74,117,103,94
Sa growth 42C second temp,64,.,88,11,98,95,84,97
HCMV UL50-53 inh,14,-4,-38,-57,-5,-30,-25,-29
GIV Gai3 FP,118,105,104,.,106,99,102,.

#57 CCN1CCN(C(=S)c2ccc(OCC(N)=O)c(OC)c2)CC1
#58 CC(=O)Nc1cccc(-c2nc(-c3cc4c(C)nn(-c5ccccc5)c4s3)no2)c1C
#59 CN(C)c1ccc(/C=C2\CCCC(=C3SCCS3)C2=O)cc1
#60 CC1=C(C(=O)Nc2ccc(Cl)cc2)C(CC(C)C)n2nc(SCc3ccccc3C)nc2N1 (stereo not given)
#61 Cn1cnnc1SCC(=O)N1c2ccccc2Sc2ccc(Cl)cc21
#62 COc1ccccc1/C=C(\C#N)C(N)=C(C#N)C#N
#63 N/C(=N\OC(=O)c1ccc2nsnc2c1)c1nonc1N
#64 COc1ccc(COCC(O)CS(=O)(=O)c2ccc(OC)c(OC)c2)cc1 (stereo not given)
assay / entry,57,58,59,60,61,62,63,64
Sa growth 42C,100,.,114,99,89,80,84,99
Sa growth 42C second temp,99,.,82,92,86,84,85,86
HCMV UL50-53 inh,9,-10,-56,-11,-6,-17,-87,-20
GIV Gai3 FP,102,109,.,114,.,104,102,99

#65 O=C(NCC1CCCO1)c1cnn(-c2ccc(Cl)cc2)c1 (stereo not given)
#66 N=c1c2c3c(sc2ncn1Cc1ccccc1)CCCCC3
#67 Cc1ccc(-c2nc3scc(CCNC(=O)Cc4ccc(Cl)cc4)n3n2)cc1
#68 Cc1ccc(C(=O)c2cnc3cc4c(cc3c2S(=O)(=O)c2ccccc2)OCO4)cc1
#69 Cc1csc(SC(C)C(=O)NC(C)C)n1 (stereo not given)
#70 NC(=O)C1COc2ccccc2O1 (stereo not given)
#71 Cc1nnc(N2CCCC(C(=O)NCc3ccco3)C2)c2nn(-c3ccccc3)c(C)c12 (stereo not given)
#72 COc1ccc(NC(=O)C2CCCN(S(=O)(=O)c3ccc(Cl)cc3)C2)cc1 (stereo not given)
assay / entry,65,66,67,68,69,70,71,72
Sa growth 42C,.,107,108,.,65,84,99,90
Sa growth 42C second temp,.,91,84,.,91,90,89,88
HCMV UL50-53 inh,3,-3,.,-18,-35,-22,-27,-24
GIV Gai3 FP,106,106,105,99,.,.,99,95

The closing 2 records of the section above come first, to join the parts:
#71 Cc1nnc(N2CCCC(C(=O)NCc3ccco3)C2)c2nn(-c3ccccc3)c(C)c12 (stereo not given)
#72 COc1ccc(NC(=O)C2CCCN(S(=O)(=O)c3ccc(Cl)cc3)C2)cc1 (stereo not given)
#73 CC1CC2(C)CC(C(=O)O2)C1C(=O)O (stereo not given)
#74 CN(C)c1ccc(NC(=O)CN2C(=O)c3ccccc3Sc3ccc(C(=O)N4CCCC4)cc32)cc1
#75 Cc1ccc(S(=O)(=O)n2c(=O)oc3ccccc32)cc1
#76 CCOC(=O)c1ccc(NC(=O)CC2Nc3cccc4cccc(c34)NC2=O)cc1 (stereo not given)
#77 Cc1nn(C)c2c1c(-c1ccccc1)cc(=O)n2CC(=O)NC(C)c1ccccc1 (stereo not given)
#78 CCOc1ccc(CNC(=O)c2ccc(NC(=O)N3CCCCc4ccccc43)cc2)cc1OC
#79 CCN(CC)Cc1cc(CCNC(=O)c2ccc(Cl)cc2)ccc1O
#80 Cc1ccc(-c2cc(C(=O)Oc3ccccc3Cl)no2)cc1C
assay / entry,71,72,73,74,75,76,77,78,79,80
Sa growth 42C,99,90,92,110,105,89,89,85,107,0.2*
Sa growth 42C second temp,89,88,83,72,96,100,76,87,89,0.0*
HCMV UL50-53 inh,-27,-24,-16,.,-15,8,.,.,-7,8
GIV Gai3 FP,99,95,102,105,101,104,104,99,98,102

#81 CCOc1ccc(CN2C(=O)c3ccccc3Sc3ccc(C(=O)NCCc4ccccc4)cc32)cc1
#82 O=C(NC1CC1)C1CCN(c2ccc(F)cc2)C1=O (stereo not given)
#83 CC(C)(C)N/N=C/c1ccccc1I
#84 C[C@@H]1C(=O)O[C@H]2C[C@@]34[C@H]5C[C@@H](C(C)(C)C)[C@]36[C@@H](OC(=O)[C@@H]6O)O[C@@]4(C(=O)O5)[C@]21O
assay / entry,81,82,83,84
Sa growth 42C,98,.,111,99
Sa growth 42C second temp,90,.,89,98
HCMV UL50-53 inh,-19,-10,-6,-42
GIV Gai3 FP,102,100,.,112

Compound activity: PubChem, ICCB-Longwood Screening Facility, Harvard Medical School
